# Screening data: PubChem, several laboratories
# RecA intein inh = blocks M. tuberculosis RecA intein splicing. cell-free RecA intein splicing, fluorescence. inhibition, %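 (about 9 µM by stock and volumes)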. 290,000 compounds, 0.75% hits; in the data active = inhibition above about 30%; inconclusive = no clear call, values can overlap the other calls;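 note: 0% = vehicle wells and 100% = reference inhibitor control wells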
# Target sequence (P9WHJ3 whole entry, looked up): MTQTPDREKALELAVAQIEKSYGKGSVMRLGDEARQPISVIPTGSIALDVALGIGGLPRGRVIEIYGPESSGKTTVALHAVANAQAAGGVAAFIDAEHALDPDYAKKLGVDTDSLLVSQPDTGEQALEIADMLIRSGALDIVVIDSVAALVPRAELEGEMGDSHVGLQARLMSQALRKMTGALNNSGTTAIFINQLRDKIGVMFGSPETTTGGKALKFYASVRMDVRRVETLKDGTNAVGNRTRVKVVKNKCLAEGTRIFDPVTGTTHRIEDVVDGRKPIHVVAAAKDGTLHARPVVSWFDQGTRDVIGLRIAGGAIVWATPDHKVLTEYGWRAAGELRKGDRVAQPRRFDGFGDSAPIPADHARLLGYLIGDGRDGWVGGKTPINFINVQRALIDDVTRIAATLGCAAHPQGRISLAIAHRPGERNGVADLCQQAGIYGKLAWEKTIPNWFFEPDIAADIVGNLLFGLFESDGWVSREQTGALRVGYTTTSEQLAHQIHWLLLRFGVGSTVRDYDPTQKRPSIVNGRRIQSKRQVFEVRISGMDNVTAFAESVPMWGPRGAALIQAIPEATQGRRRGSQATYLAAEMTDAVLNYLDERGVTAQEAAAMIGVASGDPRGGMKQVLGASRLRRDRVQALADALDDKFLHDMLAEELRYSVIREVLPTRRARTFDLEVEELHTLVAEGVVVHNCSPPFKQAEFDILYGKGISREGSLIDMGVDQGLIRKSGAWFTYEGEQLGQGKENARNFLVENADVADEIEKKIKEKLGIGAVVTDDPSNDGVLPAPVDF
# YopH PTP inh = blocks Yersinia enterocolitica YopH tyrosine phosphatase. fluorescence Ex485/Em525. inhibition, %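 (about 10 µM by stock and volumes)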. 140,000 compounds, 0.16% hits. AID 898;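 active = inhibition of 50% or more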;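 note: controls were vehicle for no effect and minimum signal wells for full effect; inactives centre near -20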
# Mtb bLac sens = beta-lactam sensitization of Mtb H37Rv. 330,000 compounds, 0.27% hits. inhibition, % at 25 µM. M. tuberculosis H37Rv growth with meropenem, percent inhibition; hits of this screen are not shown here. AID 434955;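 active = about 74% or more and at least 40 points above the plate without the antibiotic, then above 30% in a dose series; inconclusive = first-round hits that could not be retested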;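 note: growth measured after seven days incubation then overnight dye step; 0% = bacteria only wells and 100% = bacteria with antibiotic; twin plates without the antibiotic show which effects depend on it; some results filed as inactive read as strong as hits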
# Mtb H37Rv = M. tuberculosis H37Rv growth inhibitors, H37Rv strain (AID 1626) | one-dose inhibition, % at 10 µM; IC50 in µM for titrated hits | 220,000 compounds, 0.95% hits | M. tuberculosis H37Rv growth inhibition; higher % means a stronger effect;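 active = confirmed in a dose series; inconclusive = inhibition above 80% but not taken into the dose series; inactive = below 80% or under 30% at every dose of the series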;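 note: bacteria incubated seven days before Alamar blue readout; 0% = bacteria only wells and 100% = bacteria with antibiotic wells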
# Arbovirus inh = blocks arbovirus infection; arbovirus infection cell-based antiviral screen; inhibition, % at 10 µM; 200,000 compounds, 0.37% hits; AID 1251;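 active = inhibition from about 30%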;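 note: bluetongue infection of BSR cells; cell survival read as ATP light after 72 h; 0% = infected wells without compound and 100% = uninfected wells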
# Arbovirus inh repeat = further read-out of Arbovirus inh, marked with its call; inhibition, %; measured here: 10K subset replicate screen; many hits read low in the repeat;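 first of two repeat runs on a subset; 0% = infected and 100% = uninfected wells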
# The depositor's hits bear a star; ? = inconclusive; · = not tested or not shown.
SMILES,RecA intein inh,YopH PTP inh,Mtb bLac sens,Mtb H37Rv,Arbovirus inh,others
CCN(CC)CCNCc1cc(Cl)ccc1OCc1ccccc1F,1.2,·,-5.5,0.5%,3.9,
Cc1ccc(S(=O)(=O)NC2CC2)cc1[N+](=O)[O-],-4.6,·,-1.1,·,·,
S=C(NCc1ccncc1)Nc1ccc(Cl)cc1,1.9,-5.3,-8.3,0.8%,12.2,
CC(OC(=O)CNS(=O)(=O)/C=C/c1ccccc1)C(=O)Nc1ccc(S(=O)(=O)N2CCCC2)cc1 (centres undefined),-0.9,0.6,-5.5,9.3%,7.7,
CCOc1ccc(N2C(=O)CC(N3CCN(c4ccccc4OC)CC3)C2=O)cc1 (centres undefined),-3.5,·,-9.5,·,·,
COc1cc(C(=O)NC(=S)NNC(=O)[C@H]2C[C@@H]2c2ccccc2)cc(OC)c1OC,7.3,·,-1.9,0.7%,·,
O=C(N/N=C/c1ccc2c(c1)OCO2)c1cccnc1,1.9,·,-5.0,·,·,
Cc1nnc(SCC(=O)Nc2ncc(S(=O)(=O)c3ccc([N+](=O)[O-])cc3)s2)s1,-2.5,-33.0,-2.6,-0.1%,-7.6,
COc1ccc(C(=O)NC(C)CCCC(C)(C)O)cc1OC1CCN(C(C)=O)CC1 (centres undefined),-1.4,·,9.2,·,·,
Cc1cc2c(=O)n(Cc3ccco3)c(SCC(=O)NCc3ccco3)nc2s1,-0.8,-12.4,0.6,13.6%,0.6,
CC1Cc2ccccc2N1C(=O)C1CCCN(S(=O)(=O)c2cccc3cccnc23)C1 (centres undefined),·,·,-6.4,-1.9%,4.3,Arbovirus inh repeat=-2.5
CC(Cc1ccc(Cl)cc1)N1CCC(n2nccc2NC(=O)C2CCCC2)CC1 (centres undefined),6.9,·,-21.6,·,·,
NC(=O)NC(=O)COC(=O)c1ccc2c(c1)C(=O)N(Cc1ccccc1)C2=O,1.1,·,-6.1,-5.0%,·,
COc1ccc2c(c1)C1=NN(/C(C)=C\C(C)=O)C(c3ccccc3)C1CC2 (centres undefined),14.8,-7.4,5.3,3.0%,5.4,
O=C(CSc1ccccc1)Nc1nc2ccccc2[nH]1,0.1,-16.2,69.1,77.1%,-8.9,
COc1ccc(-c2cnnn2-c2ccc(NC(=O)/C=C/c3ccc(OC)c(OC)c3)cc2)cc1,0.0,1.5,19.3,20.1%,16.7,
N#CCC(=O)N/N=C/c1ccc(OS(=O)(=O)c2ccccc2)cc1,1.1,-24.4,2.6,-4.5%,-4.1,
COc1cc2c(cc1OC)C(c1ccccc1O)N(C1CC(=O)N(c3ccccc3)C1=O)CC2 (centres undefined),·,10.0,4.6,·,5.3,
COc1cccc(CNC(=O)C2Cc3cc(S(=O)(=O)N4CCCC4)ccc3N2C(C)=O)c1OC (centres undefined),-0.7,·,2.6,·,·,
COc1cccc(C2CC(c3cccs3)=NN2C(=O)CSc2nc3ccccc3o2)c1OC (centres undefined),0.9,-24.5,-0.6,-6.1%,7.1,

# 4 entries already listed, arranged by SMILES length, low to high.
SMILES,RecA intein inh,YopH PTP inh,Mtb bLac sens,Mtb H37Rv,Arbovirus inh,others
O=C(CSc1ccccc1)Nc1nc2ccccc2[nH]1,0.1,-16.2,69.1,77.1%,-8.9,
CC(Cc1ccc(Cl)cc1)N1CCC(n2nccc2NC(=O)C2CCCC2)CC1 (centres undefined),6.9,·,-21.6,·,·,
NC(=O)NC(=O)COC(=O)c1ccc2c(c1)C(=O)N(Cc1ccccc1)C2=O,1.1,·,-6.1,-5.0%,·,
COc1cc2c(cc1OC)C(c1ccccc1O)N(C1CC(=O)N(c3ccccc3)C1=O)CC2 (centres undefined),·,10.0,4.6,·,5.3,

# (list continues)
SMILES,RecA intein inh,YopH PTP inh,Mtb bLac sens,Mtb H37Rv,Arbovirus inh,others
C=CCNC(=O)c1onc(CSc2ccc(F)c(F)c2)c1C(=O)NCC=C,1.3,·,1.2,2.8%,·,
Cc1ccc(C(=O)c2cn[nH]c2-c2ccccc2O)cc1,0.1,-30.4,-6.6,-7.9%,-0.5,
CSc1nc2ccc(NC(=O)c3ccco3)cc2s1,-1.4,8.2,75.2,0.9%,-4.2,
O=C(NCCCn1ccnc1)C(=O)NCC1OCCN1S(=O)(=O)c1ccccc1 (centres undefined),-0.4,·,3.0,0.8%,4.6,
Cc1c(NC(=O)C(C)OC(=O)CCc2c[nH]c3ccccc23)c(=O)n(-c2ccccc2)n1C (centres undefined),-6.5,·,1.7,·,·,
Cc1ccc(OCC(=O)OCC(=O)c2c(N)n(C)c(=O)n(C)c2=O)cc1C,-1.6,-13.8,-0.8,1.0%,6.6,
O=C(CCS(=O)(=O)c1cccc2nonc12)N1CC(=O)N(CCc2ccccc2)C(=O)C1,-1.1,5.0,1.5,-7.0%,4.3,Arbovirus inh repeat=1.9
CCOC(=O)c1c(C)[nH]c(N=Nc2ccccc2Cl)c1C,4.1,·,·,51.7%,·,
CCCOC(=O)c1[nH]c2c(c1C)C(=O)CC(c1cc(OC)c(OC)c(OC)c1)C2 (centres undefined),-1.4,-20.1,-5.0,-0.7%,4.4,Arbovirus inh repeat=9.5
CN(Cc1ccccc1)C(=O)c1ccc(NC(=O)C2=CSCCO2)cc1,-11.5,·,3.9,·,·,
CC1=C2[C@@H]3OC(=O)[C@H](C)C3CC[C@@]2(C)C=CC1=O (some centres undefined),-1.5,·,0.9,·,·,
O=C(O)CCCSCC(=O)Nc1ccccc1,-1.6,-27.4,0.7,-8.1%,5.0,
O=C(NCC1CCCO1)C1CC(=O)N(C2CCCC2)C1 (centres undefined),1.9,-1.1,-15.7,-6.4%,-4.8,
COc1cc(/C=C2/SC(=S)N(CC(=O)Nc3nc4ccccc4s3)C2=O)cc(OC)c1OC,·,-25.9,15.1,-3.7%,3.4,
COc1cccc(C(=O)C2CCCN(C(=O)c3cccc(C#CC(C)(C)O)c3)C2)c1 (centres undefined),-0.5,·,13.7,7.7%,8.5,
Cc1ccc(CCNC(=O)C2CCCN2S(=O)(=O)c2ccc3c(c2)CCC(=O)N3)cc1 (centres undefined),0.4,-13.9,-4.9,6.0%,-0.9,Arbovirus inh repeat=3.7
COc1cc(C(=O)OC2CCCCC2=O)cc(OC)c1C (centres undefined),-1.0,-25.2,-17.9,-3.9%,7.6,
Cc1ccc(NC(=O)CCc2c(C)nn(-c3ccc(N4CCCCC4)nn3)c2C)cc1C,-0.3,·,6.3,·,·,
O=S(=O)(c1cccc2cccnc12)N1CCCc2ccccc21,-2.3,·,4.0,4.6%,·,
Cc1nn(-c2ccccc2)c(C)c1NC(=O)COC(=O)CCOc1ccccc1,2.9,·,-6.9,·,·,
Cc1ccn2c(Nc3ccccc3)c(-c3ccccn3)nc2c1,27.0,·,94.1,2.88µM*,-19.1,
COc1ccc(-c2cc(-c3n[nH]c(=S)n3-c3cc(OC)ccc3OC)[nH]n2)cc1,-2.1,0.8,?,-0.3%,12.0,
CCCCNS(=O)(=O)c1ccc(NS(=O)(=O)c2c(C)cc(C)cc2C)cc1,2.4,-8.8,-4.5,1.3%,-39.1,
FC(F)(F)c1cc(-c2ccco2)nc2ncnn12,0.4,-22.7,0.4,-4.4%,2.3,
Cc1ccc(CN(CC(=O)N/N=C/c2ccco2)S(=O)(=O)c2ccc(C)cc2)cc1,6.0,-8.0,-4.4,1.1%,-3.7,
COc1ccc(CN(C)C(=O)c2ccc(NS(=O)(=O)c3ccc(C)c([N+](=O)[O-])c3)cc2)c(OC)c1OC,1.1,·,0.1,·,·,
COc1ccc([C@@H](O)[C@@H](N)c2ccccc2)cc1,1.3,·,-0.1,·,·,
COCCn1c(SCc2cccnc2)nnc1-c1c[nH]c2ccccc12,-0.9,·,2.3,2.4%,3.8,
Cc1ccc(Cn2c(NC(=O)c3ccco3)nc3ccccc32)cc1,-1.5,-8.1,·,4.08µM*,-15.2,
COc1ccc(C(=O)c2coc3ccc(O)c(CN(C)C)c23)cc1,-0.1,-49.6,-2.4,7.0%,-3.2,Arbovirus inh repeat=-1.6
COc1ccc(C(=O)Nc2c(C)csc2C(=O)O)cc1,9.2,·,2.2,4.4%,5.9,
CSc1ccccc1NC(=O)C1=CC(c2cccs2)=NS(=O)(=O)N1C,2.8,·,7.5,·,·,
CC1CCCN(C(=O)CSc2cnc3ccccc3n2)C1 (centres undefined),-0.4,-2.9,0.9,11.0%,3.1,
Cc1nc2cc(F)ccc2n1C1CCN(S(=O)(=O)c2ccccc2)CC1,1.5,-8.0,-6.4,6.1%,-10.0,
Cc1ccc(C)c(NC(=O)C2CC3CCC2C3)c1 (centres undefined),-0.5,·,28.4,·,·,
CCOc1cc(NC(=S)NCC2CCCO2)c(OCC)cc1NC(=O)c1ccccc1 (centres undefined),-1.1,-31.7,-4.2,6.0%,-12.9,
CCOC(=O)N1CCN(S(=O)(=O)CCNC(=O)c2ccc(F)cc2)CC1,0.2,·,-4.8,·,·,
Cc1cccc(-n2nc3c(c2NC(=O)c2ccco2)CSC3)c1C,1.6,-9.4,·,2.2%,9.2,
O=C(C1=C[C@@H](C2CCCCC2)C[C@@H](OCc2ccc(CO)cc2)O1)N1CCOCC1,0.4,·,-4.6,1.4%,0.5,
Nc1c(C(=O)c2ccccc2)sc2nsc(SCCN3CCOCC3)c12,-0.5,·,8.6,1.9%,·,

# Next part, starting with the last three of the part before.
SMILES,RecA intein inh,YopH PTP inh,Mtb bLac sens,Mtb H37Rv,Arbovirus inh,others
Cc1cccc(-n2nc3c(c2NC(=O)c2ccco2)CSC3)c1C,1.6,-9.4,·,2.2%,9.2,
O=C(C1=C[C@@H](C2CCCCC2)C[C@@H](OCc2ccc(CO)cc2)O1)N1CCOCC1,0.4,·,-4.6,1.4%,0.5,
Nc1c(C(=O)c2ccccc2)sc2nsc(SCCN3CCOCC3)c12,-0.5,·,8.6,1.9%,·,
CCn1cc(C(=O)Nc2ccc3c(c2)OCCO3)c2cc(OC)c(OC)cc2c1=O,-0.5,-29.9,-4.4,10.8%,-1.9,Arbovirus inh repeat=0.9
CC1Cc2ccccc2N1C(=S)Nc1cccc(S(=O)(=O)N(C)C)c1 (centres undefined),3.8,·,-3.1,-3.8%,7.5,
O=C1CSc2ccc(S(=O)(=O)NCc3ccccc3)cc2N1,-1.6,·,7.5,·,·,
COc1cccc(C2Nc3ccccc3NC3=C2C(=O)CC(C)(C)C3)c1OC (centres undefined),-1.3,·,1.6,·,·,
CCOP(=O)(OCC)C(NC(=O)c1cccs1)c1ccccc1 (centres undefined),2.8,·,-4.7,·,·,
Cc1ccc(N(CC(=O)NCC2CCCO2)S(=O)(=O)c2ccc(Cl)cc2)cc1C (centres undefined),0.9,·,-3.1,·,·,
CCC(=O)N1CN(S(=O)(=O)c2ccc(C)cc2)CC1C (centres undefined),-1.5,-6.1,-0.8,-4.0%,7.8,
CCCCCN(C(=O)CSc1n[nH]c(-c2ccc(C)cc2)n1)c1c(N)n(CCCC)c(=O)[nH]c1=O,5.7,·,-2.7,·,·,
Cn1nc(C(=O)NCCc2ccc(S(N)(=O)=O)cc2)c2c1-c1ccccc1S(=O)(=O)C2,-0.6,·,-1.0,·,·,
CS(=O)(=O)c1ccc(Cl)c(NC(=O)c2cc(S(=O)(=O)N3CCOCC3)ccc2N2CCCC2)c1,0.0,·,-8.2,·,·,
Cc1cc(C)c(NC(=O)COC(=O)C2=COCCO2)c(Cl)c1,-6.9,·,62.6,·,·,
Cc1cc(NC(=S)N(CCCN2CCOCC2)Cc2ccco2)ccc1Cl,7.0,-19.8,2.2,0.3%,10.0,
O=C(N/N=C/c1ccc([N+](=O)[O-])cc1)c1cccc(N2CCCC2=O)c1,-0.7,·,-3.3,·,·,
COc1ccc(Br)cc1CN1CCCC(C(=O)N2CCCCC2)C1 (centres undefined),1.9,-12.1,-15.2,-2.2%,-2.9,
COc1ccccc1-c1cc(C(F)(F)F)nc(N2CCOCC2)n1,-1.6,-48.1,15.5,0.3%,22.4,Arbovirus inh repeat=6.4
Cn1cc(Cl)c(C(=O)Nc2cccc(Cl)c2Cl)n1,0.0,3.7,-0.1,6.3%,-6.9,
O=C1OC(c2ccccc2)=N/C1=C/c1cccc(OC(=O)c2cccs2)c1,-1.5,12.7,91.2,5.1%,·,
Cc1ccc(N(C(=O)Cc2cccs2)C2C=CS(=O)(=O)C2)cc1Cl (centres undefined),-4.2,·,-1.9,7.7%,0.2,
O=C(Cc1ccc(S(=O)(=O)N2CCOCC2)s1)NCCc1ccc(F)cc1,-1.8,·,-1.4,·,·,
O=C(CCCN=C1NS(=O)(=O)c2ccccc21)OCC(=O)N1CCc2ccccc21,-5.0,-49.5,?,-8.2%,7.2,
COc1cccc(NC(=S)NCCCN2CCOCC2)c1,-0.6,5.2,-6.2,-3.2%,1.1,
CC(=O)c1ccc(NC(=O)CSC(=S)N2CCCC2)cc1,-0.1,·,-5.6,-3.1%,2.8,

# The list is partial (hit frequency here may not be typical).
